Source: PubChem BioAssay
MLL AF4-AF9 inh – blocks AF4 peptide binding to human AF9 | P42568 | AlphaScreen, biotin-AF4 peptide binding to FLAG-AF9 | inhibition, % at 10 µM | 350,000 tested, 0.47% active | AID 651704;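 active = every replicate reaching a set inhibition limit, whatever the replicate mean, cut at about 25% in these data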;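 also: 0% = plate neutral control median and 100% = total signal loss; the record names both 10 and 1 µM as test concentration; the first replicate is given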
Target sequence (P42568 whole entry, looked up): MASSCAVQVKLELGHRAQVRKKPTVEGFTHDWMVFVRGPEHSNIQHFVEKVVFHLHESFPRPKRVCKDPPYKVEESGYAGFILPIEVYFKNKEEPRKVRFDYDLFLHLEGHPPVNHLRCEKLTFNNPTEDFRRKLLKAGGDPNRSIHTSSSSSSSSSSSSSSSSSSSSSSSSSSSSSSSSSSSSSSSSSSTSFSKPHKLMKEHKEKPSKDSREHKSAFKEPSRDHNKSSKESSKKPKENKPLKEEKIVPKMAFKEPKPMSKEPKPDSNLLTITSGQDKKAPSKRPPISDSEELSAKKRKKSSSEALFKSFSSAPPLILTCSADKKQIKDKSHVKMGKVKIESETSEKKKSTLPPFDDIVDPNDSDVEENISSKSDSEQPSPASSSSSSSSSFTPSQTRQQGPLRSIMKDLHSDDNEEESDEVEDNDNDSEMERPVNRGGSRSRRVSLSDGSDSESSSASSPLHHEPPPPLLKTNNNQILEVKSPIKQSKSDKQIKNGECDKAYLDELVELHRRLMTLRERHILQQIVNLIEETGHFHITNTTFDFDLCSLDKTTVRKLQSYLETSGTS
Numbers without * were called inactive; & = joins results of further samples. The list is partial; count on the stated rates, not on these rows.

smiles | MLL AF4-AF9 inh
CCCNC(=O)Nc1ccc2c(c1)OC[C@@H](C)N(S(C)(=O)=O)C[C@@H](C)[C@H](OC)CN(C)C2=O | -7.7
CCNC(=O)C[C@H]1CC[C@@H]2[C@H](COc3ccc(NC(=O)Nc4ccccc4Cl)cc3C(=O)N2C)O1 | 0.1
C[C@@H]1CN([C@@H](C)CO)C(=O)c2cccc(NC(=O)Nc3ccc(F)cc3)c2O[C@H]1CN(C)Cc1ccc(C(F)(F)F)cc1 | 2.7
CCNC(=O)[C@@H]1[C@@H](CO)[C@@H]2Cn3c(ccc(-c4ccccc4)c3=O)[C@@H]2N1Cc1ccc2c(c1)OCO2 | 11
O=C(NC1CCCCC1)C(c1ccncc1)n1c(=O)c(-c2cc3ccccc3[nH]2)nc2ccccc21 (stereo not given) | -33
CN(C)CCCNC(=O)C[C@@H]1CC[C@@H]2[C@@H](COc3ccc(NC(=O)c4ccc5c(c4)OCO5)cc3C(=O)N2C)O1 | -0.5
O=C(N[C@H]1CC[C@@H](CCNS(=O)(=O)c2ccccc2Cl)O[C@H]1CO)c1ccccc1 | -1.3
O=C(C[C@H]1C[C@H]2c3cc(NC(=O)NC4CCCC4)ccc3O[C@H]2[C@H](CO)O1)NCc1cccnc1 | -11
O=C(c1ccccc1)N1CC(=O)N2[C@H](CO)[C@@H](c3ccc(C#CC4CC4)cc3)[C@@H]2C1 | 2.2
COc1ccc2c3c([nH]c2c1)[C@@H](CO)N(C(=O)c1ccccc1)CC31CN(C)C1 | 1.1
Cc1noc(C)c1NC(=O)N(C)C[C@H]1Oc2ccc(N(C)C)cc2CC(=O)N([C@H](C)CO)C[C@@H]1C | -1.2
C[C@@H]1CN([C@H](C)CO)C(=O)c2cc(C#CC3(O)CCCC3)cnc2O[C@@H]1CN(C)S(C)(=O)=O | -4.6
C[C@@H]1CN([C@H](C)CO)C(=O)c2cc(NS(C)(=O)=O)ccc2O[C@@H](C)CCCCO[C@H]1CN(C)S(=O)(=O)c1ccc(F)cc1 | 0.5
O=C(c1cnccn1)N1CC(=O)N2[C@@H](CO)[C@@H](c3ccc(C#CC4CCCC4)cc3)[C@@H]2C1 | 2.9
CCC(=O)Nc1ccc2c(c1)C(=O)N(C)[C@H]1CC[C@H](CC(=O)NCCc3ccccc3)O[C@@H]1CO2 | -6.2
C[C@H]1CN([C@@H](C)CO)C(=O)c2cc(NS(=O)(=O)c3cn(C)cn3)ccc2O[C@@H]1CN(C)C(=O)NC1CCCCC1 | -2.8
COc1ccccc1-c1ccc([C@@H]2[C@@H](C#N)N(C(=O)C3CCOCC3)[C@H]2CO)cc1 | -0.6
COc1cc(CN2CC3(CN(S(=O)(=O)c4cn(C)cn4)C3)c3c(n(C)c4cc(OC)ccc34)[C@@H]2CO)cc(OC)c1 | 7.9
Cc1noc(C)c1NC(=O)N(C)C[C@@H]1Oc2ccc(NS(=O)(=O)c3c(C)noc3C)cc2CC(=O)N([C@@H](C)CO)C[C@@H]1C | -4.5
O=C(NCC[C@H]1CC[C@@H](NC(=O)C2CCCCC2)[C@@H](CO)O1)Nc1ccc(Cl)cc1 | 3.8
C[C@H](CO)N1C[C@H](C)[C@@H](CN(C)C(=O)NC2CCCCC2)OCCCC[C@H](C)Oc2ccc(NC(=O)Nc3cccc4ccccc34)cc2C1=O | -0.6
Cc1noc(C)c1S(=O)(=O)N(C)C[C@H]1Oc2ccc(NS(=O)(=O)c3cn(C)cn3)cc2CC(=O)N([C@H](C)CO)C[C@H]1C | -1.7
C[C@@H]1CN([C@H](C)CO)C(=O)c2cccc(NC(=O)NC3CCCCC3)c2O[C@@H]1CN(C)CC1CC1 | -0.2
Cc1ccccc1S(=O)(=O)N1[C@H](C#N)[C@H](c2ccc(-c3ccccc3)cc2)[C@H]1CO | 0.0
CCN1[C@@H]2c3ccc(C4=CCCCC4)c(=O)n3C[C@H]1[C@H](CO)[C@H]2C(=O)N1CCOCC1 | -0.5
Cc1noc(C)c1NC(=O)N(C)C[C@@H]1Oc2ccc(NS(=O)(=O)c3ccc(Cl)cc3)cc2CC(=O)N([C@H](C)CO)C[C@H]1C | -1.9
C[C@@H]1CCCCO[C@H](CN(C)Cc2ccncc2)[C@@H](C)CN([C@H](C)CO)C(=O)c2cc(NS(C)(=O)=O)ccc2O1 | -0.2
OC(c1ccc(-c2ccccc2)cc1)c1ncc(-c2cccc(F)c2)[nH]1 (stereo not given) | 1.1
CC(C)(C)c1ccccc1NC(=O)Nc1nc(C(N)c2ccccc2)cs1 (stereo not given) | 1.9
Nc1ncnc2c1ncn2[C@@H]1O[C@H](CNCc2ccccc2OC2OC(CO)C(O)C(O)C2O)[C@@H](O)[C@H]1O (stereo not given in full) | -2.1
C[C@H](CO)N1C[C@H](C)[C@@H](CN(C)Cc2ccncc2)OCCCC[C@H](C)Oc2ccc(NS(=O)(=O)c3ccc(F)cc3)cc2C1=O | -2.5
CCCC#Cc1cnc2c(c1)C(=O)N([C@H](C)CO)C[C@@H](C)[C@@H](CN(C)C(=O)Nc1cccc(F)c1)O2 | 1.9&2.6&1.5
CCCS(=O)(=O)NC(=O)C1(C)CCN(C(=O)c2cccc3ccccc23)C1 (stereo not given) | -1.5
NC(=O)c1cccc(-c2coc3c(C(=O)NC4CCCCC4)cccc23)c1 | 0.4
COCC(=O)N1CC2(CCN(C(=O)c3cccnc3)CC2)c2c([nH]c3cc(OC)ccc23)[C@@H]1CO | -7.1
Cc1noc(C)c1S(=O)(=O)Nc1ccc2c(c1)CC(=O)N([C@@H](C)CO)C[C@@H](C)[C@H](CN(C)S(=O)(=O)c1cccs1)O2 | -0.9
CC(C)NC(=O)N(C)C[C@H]1OCCCC[C@@H](C)Oc2ccc(NC(=O)c3ccccc3)cc2C(=O)N([C@@H](C)CO)C[C@@H]1C | -3.9
C[C@@H]1CN([C@H](C)CO)C(=O)c2cc(NC(=O)CCN3CCOCC3)ccc2O[C@@H]1CN(C)C(=O)Nc1cccc2ccccc12 | -2.2
Cc1cc(C(=O)Nc2ccc3c(c2)C(=O)N(C)[C@H]2CC[C@@H](CC(=O)N[C@@H](C)c4ccccc4)O[C@@H]2CO3)no1 | 1.0
COCCNC(=O)[C@@H]1[C@@H](CO)[C@@H]2Cn3c(cccc3=O)[C@H]1N2S(=O)(=O)c1ccccc1C | -2.6

Three compounds already listed, sorted by their value in MLL AF4-AF9 inh, high to low:
Compound,MLL AF4-AF9 inh
Cc1noc(C)c1S(=O)(=O)Nc1ccc2c(c1)CC(=O)N([C@@H](C)CO)C[C@@H](C)[C@H](CN(C)S(=O)(=O)c1cccs1)O2,-0.9
C[C@@H]1CN([C@H](C)CO)C(=O)c2cc(NC(=O)CCN3CCOCC3)ccc2O[C@@H]1CN(C)C(=O)Nc1cccc2ccccc12,-2.2
CC(C)NC(=O)N(C)C[C@H]1OCCCC[C@@H](C)Oc2ccc(NC(=O)c3ccccc3)cc2C(=O)N([C@@H](C)CO)C[C@@H]1C,-3.9

Next entries.
smiles | MLL AF4-AF9 inh
C[C@@H]1CN([C@@H](C)CO)C(=O)c2cccc(NC(=O)c3nc4ccccc4s3)c2O[C@H]1CN(C)Cc1ccc2c(c1)OCO2 | 6.3
COCC(=O)N1C[C@H](C)[C@H](OC)CN(C)C(=O)c2ccc(NC(=O)c3ccc(OC)cc3)cc2OC[C@@H]1C | -1.3
Cc1noc(C)c1S(=O)(=O)Nc1cccc2c1O[C@H](CN(C)Cc1ccccc1)[C@H](C)CN([C@H](C)CO)C2=O | -2.4
Cc1ccc(S(=O)(=O)N(C)C[C@@H]2Oc3c(NS(C)(=O)=O)cccc3C(=O)N([C@@H](C)CO)C[C@H]2C)cc1 | -0.8
O=C(C[C@@H]1C[C@@H]2c3cc(NS(=O)(=O)c4ccc(F)cc4)ccc3O[C@@H]2[C@@H](CO)O1)NCc1cccc(F)c1 | 3.9
COc1ccc(NC(=O)Nc2ccc3c(c2)C(=O)N([C@@H](C)CO)C[C@@H](C)[C@@H](CN(C)S(=O)(=O)c2cccs2)OCCCC[C@@H](C)O3)cc1 | -0.4
CO[C@@H]1CN(C)C(=O)c2ccc(NS(=O)(=O)c3cn(C)cn3)cc2OC[C@H](C)NC[C@H]1C | -2.3
CC(C)NC(=O)N[C@H]1C=C[C@H](CC(=O)O)O[C@@H]1CO | 0.7

4 entries from above, ordered by length of the SMILES, highest first:
smiles | MLL AF4-AF9 inh
C[C@@H]1CN([C@H](C)CO)C(=O)c2cc(NC(=O)CCN3CCOCC3)ccc2O[C@@H]1CN(C)C(=O)Nc1cccc2ccccc12 | -2.2
COc1cc(CN2CC3(CN(S(=O)(=O)c4cn(C)cn4)C3)c3c(n(C)c4cc(OC)ccc34)[C@@H]2CO)cc(OC)c1 | 7.9
C[C@@H]1CN([C@H](C)CO)C(=O)c2cccc(NC(=O)NC3CCCCC3)c2O[C@@H]1CN(C)CC1CC1 | -0.2
CCN1[C@@H]2c3ccc(C4=CCCCC4)c(=O)n3C[C@H]1[C@H](CO)[C@H]2C(=O)N1CCOCC1 | -0.5

Remaining list, next part.
smiles | MLL AF4-AF9 inh
OCC1SC(O)C(O)C(O)C1O (stereo not given) | -0.5
C[C@@H]1CCCCO[C@@H](CN(C)CC2CC2)[C@H](C)CN([C@H](C)CO)C(=O)c2cc(NC(=O)c3ccccc3)ccc2O1 | 3.3
COCC(=O)N1[C@@H]2CN(C(=O)c3ccccc3F)c3ccccc3[C@@H]2[C@@H]1CO | -3.2
C[C@@H]1CCCCO[C@@H](CN(C)C(=O)c2ccncc2)[C@@H](C)CN([C@@H](C)CO)C(=O)c2cc(NS(=O)(=O)c3cn(C)cn3)ccc2O1 | -5.3
C/C=C/c1cnc2c(c1)C(=O)N([C@@H](C)CO)C[C@@H](C)[C@H](CN(C)S(=O)(=O)c1cccs1)O2 | -2.5
O=S(=O)(N[C@@H]1CCCN(Cc2ccc(OCCO)cc2)C1)c1ccc(-c2ccccc2)cc1 | 13
Cc1ccc(S(=O)(=O)N(C)C[C@H]2Oc3ncc(C#CC4(O)CCCC4)cc3C(=O)N([C@H](C)CO)C[C@H]2C)cc1 | 1.5
Cc1cc(C)cc(CC(=O)N2CCC2(C)C(=O)NS(=O)(=O)c2ccccc2C)c1 (stereo not given) | -1.2
C[C@@H]1CN([C@@H](C)CO)C(=O)c2cc(NS(=O)(=O)c3ccc(Cl)cc3)ccc2O[C@@H](C)CCCCO[C@H]1CN(C)Cc1ccncc1 | -3.8
C[C@@H]1CN([C@H](C)CO)C(=O)c2cc(C#Cc3ccccc3)cnc2O[C@@H]1CN(C)C(=O)c1ccccc1 | -0.3
Cc1noc(C)c1S(=O)(=O)Nc1ccc2c(c1)CC(=O)N([C@@H](C)CO)C[C@H](C)[C@H](CN(C)S(=O)(=O)c1ccccc1)O2 | -2.1
O=C([C@@H]1[C@@H](CO)[C@@H]2Cn3c(ccc(/C=C/c4ccccc4)c3=O)[C@@H]2N1CC1CC1)N1CCCCC1 | -12
O=C(NC1CCCC1)N1CC(=O)N2[C@H](CO)[C@@H](c3ccc(/C=C/c4ccccc4)cc3)[C@@H]2C1 | 7.9
CC(C)C#Cc1ccc2c(c1)O[C@H](CN(C)C(=O)C1CC1)[C@H](C)CN([C@H](C)CO)S2(=O)=O | 2.1
CO[C@H]1CN(C)C(=O)c2ccc(NC(=O)Nc3c(C)noc3C)cc2OC[C@H](C)N(CCC(F)(F)F)C[C@H]1C | -9.8
O=C(N[C@@H]1C=C[C@@H](CC(=O)N2CCc3ccccc3C2)O[C@@H]1CO)C1CCOCC1 | -5.3
C[C@H](CO)N1C[C@H](C)[C@H](CN(C)Cc2ccc(-c3ccccc3)cc2)Oc2ccc(NC(=O)NC3CCCCC3)cc2CC1=O | 0.2
COc1cccc(NC(=O)N2C[C@@H](O)COC[C@@H]3O[C@H](CC(=O)NC4CCC4)CC[C@H]32)c1 | -6.0
N#C[C@@H]1[C@@H](c2ccccc2)[C@@H](CO)N1S(=O)(=O)c1ccc(F)cc1 | -1.1
CO[C@@H](CN(C)Cc1cc(F)ccc1F)[C@@H](C)CN(C(=O)Nc1ccc(F)cc1)[C@@H](C)CO | 1.0
Cc1ccc(S(=O)(=O)N[C@@H]2CC[C@H](CCn3cc(C4CCCCC4)nn3)O[C@@H]2CO)cc1 | -3.2
CC(=O)N(C)C[C@@H]1[C@@H](c2ccc(C3=CCCCC3)cc2)[C@@H](CO)N1CC1CC1 | 9.3
C[C@@H]1CCCCO[C@@H](CN(C)S(=O)(=O)c2cn(C)cn2)[C@H](C)CN([C@@H](C)CO)C(=O)c2cc(NC(=O)Nc3ccccc3)ccc2O1 | -2.3
O=C(C[C@@H]1C=C[C@H](NC(=O)C2CCC2)[C@H](CO)O1)NC1CCC1 | -5.2
CNC[C@H]1Oc2c(NC(=O)c3cnccn3)cccc2C(=O)N([C@@H](C)CO)C[C@H]1C | -1.3
O=C(N/N=C/c1ccc(N2CCOCC2)s1)c1ccc(O)cc1 | 1.1
CCC(=O)N1[C@@H]2Cn3c(cccc3=O)[C@H]1[C@@H](C(=O)N1CCCCC1)[C@@H]2CO | -0.7
CCC(=O)N(C)C[C@H]1Oc2cc(C#CC3CCCC3)ccc2S(=O)(=O)N([C@H](C)CO)C[C@@H]1C | 4.1
COc1ccccc1-c1ccc([C@H]2[C@H]3CN(C(=O)NC4CCCC4)CCCCN3[C@H]2CO)cc1 | -0.5
COc1ccccc1CNC(=O)C[C@H]1C[C@H]2c3cc(NC(=O)Nc4ccc(C(F)(F)F)cc4)ccc3O[C@H]2[C@H](CO)O1 | 1.5
Cc1ccc(S(=O)(=O)N(C)C[C@H]2Oc3ccc(NC(=O)Nc4ccc(C(F)(F)F)cc4)cc3CC(=O)N([C@H](C)CO)C[C@H]2C)cc1 | -2.7
CCOC(=O)/C(=C\Nc1ccc(OCc2ccccc2)cc1)NC(=O)c1ccccc1 | 1.8
CC(C)NC(=O)N1CC[C@@H]2[C@@H](CO)N(C)c3ccc(Br)cc3[C@@H]21 | -7.3
C[C@H]1CN([C@@H](C)CO)C(=O)CCCn2nncc2CO[C@H]1CN(C)Cc1ccccc1 | -0.1
CC(C)NC(=O)Nc1ccc2c(c1)C(=O)N([C@H](C)CO)C[C@H](C)[C@H](CN(C)C(=O)Cc1ccccc1)OCCCC[C@@H](C)O2 | -1.3
Nc1nc(-c2ccc(Cl)cc2)cs1 | 4.1
